Source: PubChem (National Center for Advancing Translational Sciences (NCATS))
LASV entry inh = inhibitors of Lassa virus binding or cell entry. Lassa virus pseudotype entry inhibition, cell reporter; control for the full effect not named in the record. Potency, µM (highest dose often 37.9 µM), for inactives: at the highest dose activity change, negative = inhibition, usual class: inhibitors. actives 1.2% (n = 300,000). AID 540256; active means well fitted inhibition curve with a large enough effect; inconclusive means small, poorly fitted or top-dose-only effect, or effect the other way; inactive means flat fitted curve, though single readings scatter; tested in HEK293 cells; further: on the % scale 0 is the no-effect control and ±100 the full control effect; nearly all actives have a fitted effect of over 50% in size; luciferase read-out
NS1 inh = influenza NS1 inhibition; S. cerevisiae slowed by influenza A NS1, growth recovery by OD600; Potency, µM (highest dose often 46.1 µM), inactives show at the highest dose activity, positive = more growth; actives 0.4% (n = 270,000); AID 2326; further: actives are rising curves; nearly all actives have a fitted effect of over 50% in size
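Recovery from NS1-induced slow growth read by OD600 in budding yeast switched to galactose assay medium (pH 6.0, -URA) at 1:100 dilution. Compound 23 nl per well; the matching strain lacking NS1 serves as control.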
Cruzain inh noDet = inhibitors of Trypanosoma cruzi cruzain without detergent | purified cruzain, Z-FR-AMC fluorescence, no detergent | Potency, µM, for inactives: max response, negative = inhibition, actives largely listed as inhibitors | actives 2.3% (n = 200,000) | AID 1476; active means well fitted curve in the direction sought with a large enough effect; inconclusive means small, poorly fitted or top-dose-only effect, or another doubt; inactive means no such curve, though single readings can be large; an effect the other way counts as inactive or inconclusive;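 further: plate controls were enzyme without inhibitor for no effect and buffer without enzyme for full effect; nearly all actives have a fitted effect of over 40% in size; top concentration of the series not given in the record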
Target sequence (P25779 123-467 limits assumed): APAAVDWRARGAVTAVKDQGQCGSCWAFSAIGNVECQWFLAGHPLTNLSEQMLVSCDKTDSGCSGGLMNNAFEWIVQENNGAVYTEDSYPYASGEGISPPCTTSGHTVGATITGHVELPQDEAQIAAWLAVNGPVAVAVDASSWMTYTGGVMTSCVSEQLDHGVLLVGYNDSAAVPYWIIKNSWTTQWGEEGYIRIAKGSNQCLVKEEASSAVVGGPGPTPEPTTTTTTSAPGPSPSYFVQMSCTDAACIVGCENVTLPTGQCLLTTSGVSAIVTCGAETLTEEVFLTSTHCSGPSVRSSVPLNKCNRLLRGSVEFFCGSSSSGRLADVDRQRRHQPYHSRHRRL
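Purified cruzain at 1.5 nM, pre-incubated 15 min with compound at room temperature in 100 mM sodium acetate pH 5.5, 5 mM DTT, 0.00005% Triton X-100. Reaction started with 2 uM Z-FR-AMC; AMC fluorescence increase over 60 s gives rate.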
SARS PLP yeast = inhibitors of SARS-CoV papain-like protease in yeast. actives 0.19% (n = 330,000). Potency, µM (doses to about 32.9 µM), for inactives: at the highest dose activity, positive = growth rescue. S. cerevisiae expressing SARS-CoV PLpro, growth rescue; control for the full effect not named in the record; further: 0% is about no effect; nearly all actives have a fitted effect of over 55% in size; growth read by luminescence after 48 h
Marburg entry inh = Marburg virus entry inhibition | Marburg virus pseudotyped entry inhibition, cell reporter; control for the full effect not named in the record; about a third of the inactives were read at about 46 µM | Potency, µM (series often up to 37.8 µM), without a hit: top-dose activity change, negative = inhibition, usual class: inhibitors | actives 1.8% (n = 300,000) | AID 540276; active = well fitted inhibition curve with a large enough effect; inconclusive = small, poorly fitted or top-dose-only effect, or effect the other way; inactive = flat fitted curve, though single readings scatter; tested in HEK293 cells; about a fifth of its hits are not listed in these tables; further: on the % scale 0 is the no-effect control and ±100 the full control effect; luciferase read-out
StopGo reporter = FMDV 2A StopGo reporter, luciferase signal; human cells with a luciferase reporter of 2A StopGo recoding; control for the full effect not named in the record; Potency, µM (highest dose often 57.9 µM), inactives show at the top dose signal change, negative = less light; actives 1.2% (n = 410,000); active = well fitted falling curve with a large enough effect; inconclusive = small, poorly fitted or top-dose-only effect; inactive = no such curve, though single readings can be large or run the other way; tested in HEK293T cells; further: on the % scale 0 is the no-effect control and ±100 the full control effect; nearly all actives have a fitted effect of over 45% in size; luciferase light after 4 h
Cruzain inh Det = cruzain (T. cruzi) inhibition with detergent. actives 0.43% (n = 200,000). Potency, µM, inactives show max response, negative = inhibition, actives largely listed as inhibitors. purified cruzain, Z-FR-AMC fluorescence, 0.01% Triton. AID 1478; active means well fitted curve in the direction sought with a large enough effect; inconclusive means small, poorly fitted or top-dose-only effect, or another doubt; inactive means no such curve, though single readings can be large; an effect the other way counts as inactive or inconclusive;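 further: plate controls were neutral wells for no effect and buffer without enzyme for full effect; nearly all actives have a fitted effect of over 40% in size; top concentration of the series not given in the record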
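Steps: dispense cruzain (1.5 nM final) in acetate buffer pH 5.5 with DTT and 0.01% Triton X-100; pin-transfer compounds; incubate 15 min RT; add Z-FR-AMC (2 uM final); read fluorescence every 30 s, using the 60 s intensity change.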
RE007 growth inh = less growth of the S. pombe RE007 Vpr strain; S. pombe RE007 Vpr strain, BacTiter-Glo ATP luminescence, 24 h; control for the full effect not named in the record; Potency, µM (top dose mostly 92.2 µM), without a hit: at the highest dose activity change, negative = less growth; actives 0.21% (n = 360,000); active = well fitted falling curve with a large enough effect; inconclusive = small, poorly fitted or top-dose-only effect; inactive = no such curve, though single readings can be large or run the other way;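 further: on the % scale 0 is the no-effect control and ±100 the full control effect; nearly all actives have a fitted effect of over 50% in size; the assay follows cell death caused by Vpr and the record does not say whether a fall means rescue or toxicity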
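Fission yeast RE007 carrying one integrated HIV-1 vpr copy, seeded at OD 0.01 in PMG+AL medium with 23 nL pinned compound. Grown 24 h at 30 degrees; viability read by BacTiter-Glo luminescence after 5 min.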
The depositor's hits bear a star; ? = inconclusive; . = not tested or not shown; & = joins results of further samples; [ ] = dose if it differs, or a comment. Unless noted, the call rests on the fitted dose curve; in most records, active means well fitted rising curve with a large enough effect; inconclusive means small, poorly fitted or top-dose-only effect; inactive means no such curve, though single readings can be large or run the other way. Potency means the concentration at half of the fitted maximal effect.

Screens by letter: A = LASV entry inh; B = NS1 inh; C = Cruzain inh noDet; D = SARS PLP yeast; E = Marburg entry inh; F = StopGo reporter; G = Cruzain inh Det; H = RE007 growth inh
> O=C(c1ccc2c(=O)n3c(nc2c1)CCC3)N1CCN(S(=O)(=O)c2cccc(F)c2)CC1
  A: -1%	B: .	C: .	D: 1%	E: 7%[46.1 µM]	F: -1%	G: .	H: -5%

> O=c1[nH]c(=O)n(CCC2=CCCCC2)c(O)c1/C=N/N1CCOCC1
  A: .	B: 1%	C: .	D: 0%	E: .	F: -6%	G: .	H: 4%

> COC(=O)c1[nH]c(C)c(/C(O)=C2\C(=O)C(=O)N(CCN(C)C)C2c2ccc(OC)cc2)c1C (stereo not given)
  A: .	B: -2%	C: -5%	D: 1%	E: .	F: .	G: -5.5%	H: .

> Cc1cccc2cc(CN(Cc3nnnn3C3CCCC3)C3CCCCC3)c(=O)[nH]c12
  A: 5%	B: -11%	C: .	D: .	E: -2%&-45%	F: 5%	G: .	H: -3%

> CC(C(=O)Nc1ccccc1F)N1C(=O)c2ccccc2C1=O (stereo not given)
  A: 2%	B: 2%	C: -3%	D: 8%	E: 0%	F: -1%	G: -4.7%	H: 1%

> O=C(NCCN1CCOCC1)c1cccs1
  A: 4%	B: -4%	C: -6%	D: 5%	E: 1%	F: -21%	G: 1.5%	H: 7%

> COc1cc(S(=O)(=O)NCC2CCCO2)c(OC)cc1Cl (stereo not given)
  A: 6%	B: -4%	C: 2%	D: 1%	E: 6%	F: 74%[activator]	G: 5.1%	H: -1%

> Cc1ccc(C)c(C(=O)CN2C3=NCCCN3c3ccccc32)c1
  A: 11%	B: 3%	C: -8%	D: ?	E: ?	F: .	G: 5.0%	H: -8%

> O=C(CSc1nnc2ccccn12)Nc1ccccc1C(=O)O
  A: 15%[46.1 µM]	B: .	C: .	D: 2%	E: 9%[46.1 µM]	F: 4%	G: .	H: 10%

> COc1ccc(NC(=S)N2CCc3cc(OC)c(OC)cc3C2)cc1
  A: .	B: 0%	C: .	D: 0%	E: .	F: -22%	G: .	H: 25%

> CCCCC(O)(CCCC)C(=O)NN(C(=O)OC)c1ccc(C)cc1
  A: -12%	B: 2%	C: .	D: 0%	E: ?	F: -13%	G: .	H: 0%

> CNC(=O)c1nnc(Cc2ccc(F)cc2)o1
  A: .	B: 0%	C: -1%	D: 4%	E: .	F: 3%	G: 0.3%	H: 0%

> CCCn1cc(S(=O)(=O)CC(=O)Nc2ccc(OCC)cc2)c2ccccc21
  A: -9%	B: -20%	C: 1%	D: -5%	E: -24%	F: 13%	G: -5.5%	H: 3%

> CCOC(=O)c1sc(NC(=O)CSc2ncn[nH]2)c(C#N)c1C
  A: 6%	B: 24%	C: -8%	D: 1%	E: -28%	F: .	G: -5.5%	H: -4%

> O=C(NCc1ccc(Cl)cc1)c1ccc(CNc2c(N3CCCC3)c(=O)c2=O)cc1
  A: .	B: -2%	C: .	D: -1%	E: .	F: -13%	G: .	H: 5%

> CCOC(=O)N1CCC(N2C(=O)c3ccccc3C2Nc2ccc3c(C)cc(=O)oc3c2)CC1 (stereo not given)
  A: 2%	B: -31%	C: ?	D: -14%	E: -7%	F: -10%	G: ?	H: 22%

> CCOC(=O)N1CCN(C(=O)COC(=O)CNC(=O)c2ccc(C)cc2)CC1
  A: 12%	B: .	C: .	D: 0%	E: 1%	F: -6%	G: .	H: 21%

> CCNc1nnc(SCC(=O)c2cc(C)n(C3CC3)c2C)s1
  A: ?	B: .	C: .	D: 0%	E: 26%	F: 19%	G: .	H: -9%

> COc1ccc(C2=NN(c3nc(C(=O)O)cs3)C(O)(C(F)(F)F)C2)c(OC)c1 (stereo not given)
  A: -13%	B: .	C: .	D: 19%	E: 8%[46.1 µM]	F: 14%	G: .	H: 2%

> CC(=O)NC(CC(=O)NC1CCCCC1)c1ccccc1 (stereo not given)
  A: 0%	B: 6%	C: 5%	D: -14%	E: 4%	F: -25%	G: -0.5%	H: 5%

> COc1cccc(NC(=O)c2cc([N+](=O)[O-])ccc2N2CCN(C)CC2)c1
  A: 9%[46.1 µM]	B: 1%	C: .	D: 0%	E: ?	F: -10%	G: .	H: -23%

> CC(=O)NCCc1cc2cc(C)c(C)cc2[nH]c1=O
  A: -15%	B: 0%	C: 3%	D: 5%	E: 12%	F: -23%	G: -0.1%	H: -2%

> O=c1cc(CN2CCOCC2)nc(C2CC2)[nH]1
  A: -5%	B: 3%	C: -5%	D: -2%	E: 1%	F: -3%	G: 3.0%	H: 10%

> COc1ccc(NC(=S)NC2CCN(Cc3ccccc3)CC2)cc1OC
  A: -7%[46.1 µM]	B: 3%	C: .	D: 0%	E: ?	F: -12%	G: .	H: 7%

> CCC(C)(C)n1nnnc1C(c1cc(OC)ccc1OC)N1CCC(C(N)=O)CC1 (stereo not given)
  A: 10%	B: -11%	C: 12%	D: 0%	E: ?	F: 15%	G: -1.2%	H: -3%

Shown bar-delimited: 2 of the compounds above
structure | LASV entry inh | NS1 inh | Cruzain inh noDet | SARS PLP yeast | Marburg entry inh | StopGo reporter | Cruzain inh Det | RE007 growth inh
CC(C(=O)Nc1ccccc1F)N1C(=O)c2ccccc2C1=O (stereo not given) | 2% | 2% | -3% | 8% | 0% | -1% | -4.7% | 1%
O=C(NCCN1CCOCC1)c1cccs1 | 4% | -4% | -6% | 5% | 1% | -21% | 1.5% | 7%

(list continues)
Screens by letter: A = LASV entry inh; B = NS1 inh; C = Cruzain inh noDet; D = SARS PLP yeast; E = Marburg entry inh; F = StopGo reporter; G = Cruzain inh Det; H = RE007 growth inh
> Cc1csc(NC(=O)c2nc(-c3ccccc3)n(-c3ccccc3)n2)n1
  A: -2%	B: -3%	C: -12%	D: -2%	E: -17%	F: -25%	G: 1.8%	H: -10%

> COC(=O)c1ccc(C2c3[nH]c4ccccc4c3C[C@H]3C(=O)N(C4CC4)CC(=O)N23)cc1 (stereo not given in full)
  A: .	B: 4%	C: .	D: 0%	E: .	F: -22%	G: .	H: -3%

> COc1ccc2c(Sc3ccccc3)c(C(=O)NCCCN3CCCCC3)[nH]c2c1
  A: ?	B: .	C: 21%	D: .	E: ?	F: -12%	G: -4.2%	H: .

> O=C(Nc1ccc(Cl)cc1)Nc1ccccc1NS(=O)(=O)c1cccs1
  A: 3%	B: -62%	C: 14%	D: -29%	E: -1%[46.1 µM]	F: 24%	G: -9.6%	H: -26%

> Cc1ccc(S(=O)(=O)N2CCC(C(=O)OCC(=O)N(C)C3CCS(=O)(=O)C3)CC2)cc1C (stereo not given)
  A: -4%	B: .	C: .	D: 3%	E: -5%	F: -16%	G: .	H: -7%

> Cc1ccnc(NC(=S)N2CCN(c3cccc(C(F)(F)F)c3)CC2)c1
  A: ?	B: -115%	C: .	D: -85%	E: 5%&5%[46.1 µM]	F: ?	G: .	H: ?

> COc1ccc(S(=O)(=O)N(C)c2ccc(C(=O)NCc3ccco3)cc2)cc1OC
  A: -3%	B: -15%	C: .	D: -2%	E: 5%	F: -9%	G: .	H: 10%

> CCN1CCC(N2CCN(c3ccc(F)cc3)CC2)CC1
  A: ?	B: 26%	C: .	D: 0%	E: ?	F: -17%	G: .	H: 4%

> CC(=O)Nc1ccc(S(=O)(=O)NCCc2csc(-c3cccnc3)n2)cc1
  A: .	B: 8%	C: .	D: -2%	E: .	F: -2%	G: .	H: 5%

> CC(=O)Nc1ccc(NC(=O)COC(=O)c2cc(S(=O)(=O)N3CCCC3)ccc2O)cc1
  A: 2%[46.1 µM]	B: .	C: .	D: 0%	E: -3%[46.1 µM]	F: 12%	G: .	H: 11%

> COc1ccc(CCNC(=O)CN(c2ccccc2OC)S(C)(=O)=O)cc1OC
  A: 0%	B: 5%	C: -15%	D: -5%	E: 7%	F: .	G: 1.4%	H: 2%

> O/N=C(\Cc1cscn1)c1ccc(O)cc1O
  A: 5%	B: -13%	C: -12%	D: 3%	E: -1%	F: .	G: 0.5%	H: ?

> COCCCNc1ncnc2c1nc1n2CCCC1
  A: .	B: 3%	C: .	D: -2%	E: .	F: -8%	G: .	H: 12%

> Cc1csc(NC(=O)C2CCCCC2C(=O)O)n1 (stereo not given)
  A: 2%	B: 9%	C: -8%	D: -1%	E: 2%[46.1 µM]	F: 8%	G: 4.0%	H: 9%

> CCOC(=O)c1ccc(CN2Cc3ccccc3C2=O)cc1
  A: 10%	B: -12%	C: .	D: 0%	E: ?	F: 43%[activator]	G: .	H: -28%

> O=C(CCc1ccccc1)NCC1OCCc2ccccc21 (stereo not given)
  A: 11%[46.1 µM]	B: -5%	C: .	D: -1%	E: ?	F: 11%	G: .	H: 1%

> CCn1c(=O)c2cc(C(=O)NCc3cccs3)sc2c2ccccc21
  A: .	B: -44%	C: .	D: 0%	E: .	F: 15%	G: .	H: -8%

> C/C(=N/NC(=O)CNC(=O)/C=C/c1ccccc1)c1ccco1
  A: .	B: 3%	C: .	D: ?	E: .	F: 3%	G: .	H: -3%

> NC(=O)c1cn(-c2ccccc2)nc1-c1cccnc1
  A: -17%	B: 1%	C: 0%	D: -5%	E: 6%	F: -7%	G: 4.6%	H: 3%

> COC(=O)[C@H](CCSC)NC(=O)Nc1ccc(S(N)(=O)=O)cc1
  A: .	B: 8%	C: .	D: 1%	E: .	F: -8%	G: .	H: -7%

> COc1ccccc1N(CC(=O)N1CCCCCC1)S(=O)(=O)c1ccc(C)cc1
  A: -21%	B: -18%	C: .	D: -2%	E: ?	F: 71%[activator]	G: .	H: 9%

> Cc1ccc(S(=O)(=O)Nc2ccc3ccccc3n2)cc1
  A: 0%	B: -8%	C: .	D: -1%	E: 9%	F: 98%[activator]	G: .	H: -12%

Limited to StopGo reporter (3 entries from above):
| structure | StopGo reporter |
| --- | --- |
| CCOC(=O)N1CCC(N2C(=O)c3ccccc3C2Nc2ccc3c(C)cc(=O)oc3c2)CC1 (stereo not given) | -10% |
| CCOC(=O)N1CCN(C(=O)COC(=O)CNC(=O)c2ccc(C)cc2)CC1 | -6% |
| CCNc1nnc(SCC(=O)c2cc(C)n(C3CC3)c2C)s1 | 19% |
